E coli growth = blocks Escherichia coli growth; OD600, 23 h; active compounds read low; AID 1053175; OD600 absorbance (test concentration not listed); 0.21% of 330,000 active;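 active = OD600 absorbance below the run mean of sample wells minus 3.6 SD, in any replicate, cut at about 0.56 in these data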;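 note: stock transfer was 300 nL into about 60 µL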
Beta2AR agonist = human beta-2 adrenergic receptor agonism by FAP; Am2.2-beta2AR cells, FAP receptor internalization, flow cytometry; reference of the scale not given here; 0.43% of 340,000 active; P07550; response, % (test concentration not listed);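 active = response above a set limit, near 3 SD of response in nonfluorescent compounds, cut at about 42% in these data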;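 note: stock transfer was 100 nL into about 11 µL; a reference agonist was the positive control; negative values mostly stem from fluorescent compounds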
UCH37 inh = inhibitors of human deubiquitinating enzyme UCH37; 0.33% of 330,000 active; purified proteasome/UCH37, Ub-AMC cleavage fluorescence; inhibition, % (concentration not given with the values);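 active = mean of two replicates above 20%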;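 note: 0% = compound-free wells with enzyme and 100% = wells lacking proteasome; stock transfer was 100 nL into about 20 µL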
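Material: human UCH37 enzyme supplied as purified proteasome complex. Measure: % inhibition of Ub-AMC cleavage fluorescence. Medium: pH 7.4 Tris-HCl (50 mM) with ovalbumin, ATP-MgCl2, DTT. Times: 30 min preincubation with enzyme, 25 min cleavage at room temperature. Detection: AMC fluorescence intensity at 355/460 nm.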
HNF4A DNA FP = change in binding of human HNF4 alpha to DNA; HNF4a-FITC DNA binding, fluorescence polarization, 1 h; activity change, % at 10 µM; AID 1224865; 0.3% of 360,000 active; in the data active = activity change above about 30%, passing the limit was not always enough;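 note: controls were the assay level and a saturating level of protein; the project sought stronger binding though the title names inhibitors; some compounds called inactive have numbers as strong as hits; positive values seem to mean higher polarization but the record does not say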
Target sequence (P41235 whole entry, looked up): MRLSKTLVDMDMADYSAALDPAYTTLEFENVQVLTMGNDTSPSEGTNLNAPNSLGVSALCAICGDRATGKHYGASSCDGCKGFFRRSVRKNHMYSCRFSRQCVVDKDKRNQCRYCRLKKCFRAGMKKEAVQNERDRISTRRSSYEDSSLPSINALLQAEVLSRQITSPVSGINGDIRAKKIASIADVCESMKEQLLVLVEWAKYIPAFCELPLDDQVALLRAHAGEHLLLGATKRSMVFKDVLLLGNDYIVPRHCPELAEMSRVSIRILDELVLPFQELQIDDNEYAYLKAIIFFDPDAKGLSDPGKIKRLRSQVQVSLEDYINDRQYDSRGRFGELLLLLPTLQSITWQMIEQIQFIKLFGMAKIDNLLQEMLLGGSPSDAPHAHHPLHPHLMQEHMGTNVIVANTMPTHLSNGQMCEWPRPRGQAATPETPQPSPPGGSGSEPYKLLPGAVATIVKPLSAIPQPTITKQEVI
LANA-H2B inh = blocks KSHV LANA binding to histone H2A/H2B; cell-free LANA-H2A/H2B peptide, fluorescence polarization; inhibition, % (concentration not given with the values); 0.6% of 320,000 active; in the data active = inhibition mostly above about 10%, no sharp cut-off; inactive = mostly below about 6.7%;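 note: stock transfer was 7.5 nL into about 10 µL; 0% = median of vehicle wells and 100% = median of positive control wells; one replicate is shown; the record names a cut of 25% in any replicate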
ALR inh = blocks human ALR sulfhydryl oxidase activity | inhibition, % (concentration not given with the values) | AID 485317 | 3.8% of 290,000 active | purified ALR, DTT oxidation, H2O2 HRP-luminol luminescence;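 active = mean and each replicate at 75% or more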;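 note: stock transfer was 7.5 nL into about 7.5 µL; 0% = neutral wells and 100% = wells with inactivated enzyme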
Target sequence (P55789 whole entry, looked up): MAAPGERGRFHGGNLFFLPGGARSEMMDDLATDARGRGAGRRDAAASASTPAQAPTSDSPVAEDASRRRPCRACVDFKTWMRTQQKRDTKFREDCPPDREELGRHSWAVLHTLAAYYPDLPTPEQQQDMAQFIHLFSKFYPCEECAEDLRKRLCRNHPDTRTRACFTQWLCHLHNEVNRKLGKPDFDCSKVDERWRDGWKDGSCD
FGF22 binding = shifts melting point of recombinant human FGF22 | 1.5% of 340,000 active | calls only at 9.99 µM | recombinant FGF22 thermal shift, SYPRO orange fluorescence; percent of sucrose octasulfate shift, DMSO zero;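 active = melting point raised past a set limit in the mean and every replicate; three in four hits are not shown here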
Target sequence (Q9HCT0 whole entry, looked up): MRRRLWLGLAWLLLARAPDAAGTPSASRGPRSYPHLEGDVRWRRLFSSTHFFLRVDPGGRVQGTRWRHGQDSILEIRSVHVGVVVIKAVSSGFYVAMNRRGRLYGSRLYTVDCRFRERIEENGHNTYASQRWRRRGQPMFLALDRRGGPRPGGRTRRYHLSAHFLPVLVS
Active calls of the source: *; i = inactive; / = not tested or not shown.

E coli growth	Beta2AR agonist	UCH37 inh	HNF4A DNA FP	LANA-H2B inh	ALR inh	FGF22 binding	mol
0.69	22	2.5	1.7	-5.7	6	i	COc1ccc(C2CCCN2C(=S)Nc2ccc(C)c(C)c2)cc1OC (centres undefined)
0.65	-1	1.8	11	-0.6	-10	i	COc1ccccc1OCCNC(=O)CNC(=O)c1ccc(Cl)c(Cl)c1
/	1	/	3.5	2.1	0	i	C/C(=N\Nc1ccc([N+](=O)[O-])cc1[N+](=O)[O-])c1cccnc1
0.66	0	2.9	3.0	1.3	-1	i	Cc1ccccc1OCC(=O)OCC(=O)NCc1ccc2c(c1)OCO2
0.73	12	2.8	0.6	2.3	/	/	CCCCCn1c(=S)[nH]c2ncccc2c1=O
0.72	-1	0.6	-0.4	3.1	5	i	Cc1ccc(OCC(=O)Nc2cc(C(=O)O)cc(C(=O)O)c2)cc1C
0.77	17	-42	-3.1	3.4	-3	/	COc1ccc(C(=O)Nc2nc3c(s2)CCCC3)cc1S(=O)(=O)N1CCCc2ccccc21
/	-5	1.3	-1.0	2.6	/	i	CCOC(=O)[C@H]1[C@H]2COc3ccc(OC)cc3[C@@H]2N2C(=O)c3cc(F)c(F)cc3NC(=O)[C@@]12C
0.69	11	-2.9	-2.5	-5.9	-7	i	COc1ccc2[nH]c(C(=O)N3CCN(Cc4ccccc4)CC3)cc2c1OC
0.71	-3	3.9	0.8	2.0	6	i	Cc1ccc(-c2nnc(N3CCCCC3)c3ccccc23)cc1S(=O)(=O)N(C)C

Quoted from the listing:
`C/C(=N\Nc1ccc([N+](=O)[O-])cc1[N+](=O)[O-])c1cccnc1` @ LANA-H2B inh: 2.1
`Cc1ccc(-c2nnc(N3CCCCC3)c3ccccc23)cc1S(=O)(=O)N(C)C` @ UCH37 inh: 3.9

In the list so far, these have a halogen.
E coli growth	Beta2AR agonist	UCH37 inh	HNF4A DNA FP	LANA-H2B inh	ALR inh	FGF22 binding	mol
0.65	-1	1.8	11	-0.6	-10	i	COc1ccccc1OCCNC(=O)CNC(=O)c1ccc(Cl)c(Cl)c1
/	-5	1.3	-1.0	2.6	/	i	CCOC(=O)[C@H]1[C@H]2COc3ccc(OC)cc3[C@@H]2N2C(=O)c3cc(F)c(F)cc3NC(=O)[C@@]12C

More results
E coli growth	Beta2AR agonist	UCH37 inh	HNF4A DNA FP	LANA-H2B inh	ALR inh	FGF22 binding	mol
/	11	0.4	0.8	-1.7	-53	/	CCc1ccc2[nH]c(=O)c(CN(CCCN3CCOCC3)C(=O)Nc3ccc(Cl)cc3)cc2c1
0.64	-2	3.2	4.8	3.5	/	i	COc1ccc(C2NC(=O)NC(C)=C2C(=O)OC2CCCC(C)C2)cc1 (centres undefined)
0.62	6	2.4	-1.9	4.1	/	i	CCOC(=O)c1cc(-c2ccc(OC)cc2)n[nH]1
0.68	-3	0.3	-3.3	1.5	-17	i	COc1ccc(CC(=O)NCc2nnc(SCC(=O)Nc3cccc(F)c3)n2C)cc1
0.71	2	4.5	-1.8	2.3	/	/	Cc1noc(C)c1C(=O)OCC(=O)NC1CC1
0.73	-12	i	-5.6	-4.4	8	/	Nc1c(C(=O)NCCN2CCOCC2)c2nc3ccccc3nc2n1-c1ccccc1
0.65	-5	-1.3	-0.8	8.0	22	i	CN(C)C(=O)NC(NC(=S)Nc1ccccc1)C(Cl)(Cl)Cl (centres undefined)
0.68	6	0.6	-0.9	-7.3	23	/	COc1ccc(NC(=O)Nc2ccc(N(C)C)cc2)cc1
0.68	-29	4.6	5.7	5.4	1	i	CC(=O)c1cnn(-c2ccc(Cl)cc2)c1C
0.65	-1	3.2	-0.5	4.2	1	i	O=C(CS(=O)(=O)c1ccccc1)Nc1ccc(Cl)cn1
0.71	2	-4.3	2.9	5.0	-3	i	CC(NC(=O)c1ccc(CS(C)(=O)=O)cc1)c1ccc(-c2ccccc2)cc1 (centres undefined)
0.69	-13	0.3	1.1	28*	-8	/	CSCCC(NS(=O)(=O)c1ccc2ccccc2c1)C(=O)O (centres undefined)
0.7	-1	0.6	1.1	2.5	/	/	Cc1noc(C)c1COc1ccc(C(=O)OCC(=O)Nc2ccc3c(c2)OCO3)cc1
0.69	-7	5.2	-0.6	-1.0	-6	/	CSc1nc2ccc(NC(=O)C3CCCO3)cc2s1 (centres undefined)
0.69	-1	1.2	-2.9	0.2	-5	/	O=C(CCc1nc(-c2ccccc2F)no1)NCCN1CCN(Cc2ccccc2)CC1
0.68	-1	1.3	-1.4	4.8	100*	/	COc1ccc(-c2noc(CN3CCN(c4ccccc4F)CC3)n2)cc1OC
0.64	-3	2.6	1.8	1.8	2	i	CCCN(CC(=O)Nc1ccc(F)c(F)c1F)C(=O)C1CC(=O)N(Cc2ccccc2)C1 (centres undefined)
0.69	7	3.8	8.4	2.6	0	i	Cc1nnc(SCC(=O)NC2CCS(=O)(=O)C2)n1Cc1ccccc1 (centres undefined)
0.69	-4	1.7	1.9	5.8	-16	i	CCN(CCn1cccn1)C(=O)c1cc(COc2ccccc2SC)on1
0.66	-6	2.2	-3.6	0.9	0	i	COc1cc(OCC(=O)NC(C)C)cc2c1C(=O)O[C@@H](C)CCCC(=O)CCCCC2

With a hit mark in ALR inh (from the list above):
E coli growth	Beta2AR agonist	UCH37 inh	HNF4A DNA FP	LANA-H2B inh	ALR inh	FGF22 binding	mol
0.68	-1	1.3	-1.4	4.8	100*	/	COc1ccc(-c2noc(CN3CCN(c4ccccc4F)CC3)n2)cc1OC

The list continues.
E coli growth	Beta2AR agonist	UCH37 inh	HNF4A DNA FP	LANA-H2B inh	ALR inh	FGF22 binding	mol
0.68	4	4.1	0.0	5.2	58	/	NNC(=O)c1nn(-c2ccc(Cl)cc2)ccc1=O
0.67	5	9.9	3.8	-1.3	99*	/	CCn1c(N)c(C(=O)NC)sc1=S
/	0	/	-4.1	-2.8	-2	/	O=C(N/N=C/c1ccncc1)c1cc(C2CC2)nc2ccccc12
0.63	1	-289	4.2	4.5	-7	i	N#Cc1cc2c(ccc3ccccc32)oc1=O
0.72	11	2.7	-8.2	0.4	/	/	COc1cccc(C(=O)Nc2cccc(C(=O)NC3=NN(c4c(Cl)cc(Cl)cc4Cl)C(=O)C3)c2)c1
0.7	15	2.2	1.3	2.1	0	i	COc1ccc(CCNC(=O)CC2(CC3=NS(=O)(=O)c4ccccc4N3)CCCC2)cc1OC
0.72	-1	-0.8	-0.6	-1.5	5	i	Cc1cc(C(=O)NC2CCC(C)CC2)c(C)o1 (centres undefined)
0.72	5	0.5	-0.6	-2.0	-16	/	CCOC(=O)N1CCN(C(=O)CSc2nnc(-c3ccccc3OC)o2)CC1
0.66	4	2.0	-0.9	-1.0	-2	/	O=C(CN1C(=O)COc2ccccc21)N1CCN(c2ccccc2F)CC1
0.76	-4	2.0	3.4	-2.1	15	/	COC(=O)CC1C(=O)NCCN1C(=O)CSc1nnc(Nc2ccc(C)cc2)s1 (centres undefined)
0.68	-5	0.8	36*	0.0	0	i	CCOc1ccc(OCc2ccc(C(=O)N3CCCCC3)o2)cc1
0.63	-2	-0.3	0.1	1.7	-1	/	CC(Oc1ccc(Cl)cc1Cl)C(=O)NNC(=O)C(=O)N1CCCCC1 (centres undefined)
0.63	10	8.3	6.0	-1.3	4	i	Cc1ccc2nc(SCC(=O)c3ccc(O)cc3O)[nH]c2c1
0.67	4	2.7	0.4	1.9	-1	i	COc1cc(C(=O)N(CCN(C)C)CC2CCCN(Cc3ccccc3F)C2)ccc1C (centres undefined)
0.73	-2	-5.1	-1.3	-0.5	-3	/	CCOc1ccccc1C1C(C(N)=O)=C(C)Nc2nc(-c3ccc(OC)cc3)nn21 (centres undefined)
0.72	0	-22	-3.3	-2.7	/	i	COc1ccc(OC)c(NC(=O)CN2c3cccc4cccc(c34)S2(=O)=O)c1
0.69	1	0.8	1.8	-1.6	6	i	CC(OC(=O)Cc1c[nH]c2ccccc12)C(=O)Nc1ccc(S(N)(=O)=O)cc1 (centres undefined)
/	-5	/	3.1	-0.7	0	i	CCn1ncc(/C=N\NC(=O)COc2cc(C)cc(C)c2)c1C
0.68	-108	-1.6	129	1.3	2	/	CCOc1cccc2c1OC(c1cc(OC)c(OC)c(OC)c1)N1N=C(c3ccc(C)o3)CC21 (centres undefined)
0.7	5	2.8	1.9	-4.3	1	i	O=C(NCCc1ccccc1)c1ccccc1SCC(=O)N1CCCC1
0.69	-23	5.2	5.6	-0.7	-6	/	N#C/C(=C\C=C\c1ccccc1[N+](=O)[O-])c1nc(-c2ccc3c(c2)OCO3)cs1
0.68	0	0.4	-6.4	/	/	/	Cc1ccc(SCCN2CCN(C)CCC2=O)cc1
0.77	-3	0.4	2.8	-0.7	-2	i	O=C(OCCCc1cc2ccccc2c(=O)o1)c1ccc(C(F)(F)F)cc1
0.76	0	-2.9	0.1	-3.6	5	/	CC(C)Sc1nc(SCC(=O)NCc2ccco2)c2c3c(sc2n1)COC(C)(C)C3
0.68	-2	0.1	-1.4	/	/	i	O=C(Cc1ccc(NC(=O)C2CCN(C(=O)C3CC3)CC2)cc1)Nc1cccc(C(=O)N2CCCCC2)c1
0.66	-9	-107	3.9	-5.9	2	/	CSc1nnc(-c2sc(-c3ccccc3)nc2C)n1C
/	9	/	/	-1.0	41	i	CC1=NN(c2ccccc2)C(=O)/C1=C/c1ccc(-c2ccc(C)c(C(=O)O)c2)o1
0.67	4	-1.5	1.2	-0.4	2	i	CC(OC(=O)/C=C/c1ccc2ccccc2n1)C(=O)Nc1ccc(S(N)(=O)=O)cc1 (centres undefined)
0.66	-6	2.7	-0.5	0.1	/	i	O=C(c1ccccn1)N1CCN(S(=O)(=O)c2ccc3ccccc3c2)CC1
0.63	-6	0.8	-1.8	-7.4	-4	i	NC(=O)Nc1ccc(C(=O)OCC(=O)Nc2ccc([N+](=O)[O-])cc2C(F)(F)F)cc1
0.74	1	1.3	-2.0	0.3	-8	/	CCOc1ccc(Cc2c(Cl)nc(N)nc2Cl)cc1
0.7	7	3.5	3.2	4.8	-6	i	O=S(=O)(/N=C(/Nc1ccc(Cl)c(S(=O)(=O)N2CCOCC2)c1)c1ccc(F)cc1)c1ccccc1
0.71	-26	2.8	2.3	4.9	-2	/	CC(=O)c1sc(NC(=O)c2ccco2)nc1-c1ccccc1
0.67	1	-7.6	2.1	1.3	3	/	COc1ccc2c(O)c(-c3c(C)cc(C)cc3C)c(=O)[nH]c2c1
0.74	12	0.8	-3.2	-4.9	1	i	CCC(C)N(CCNC(=O)c1ccc(NC2=NC3CS(=O)(=O)CC3S2)cc1)Cc1ccco1 (centres undefined)
0.63	-8	0.1	-0.8	-5.6	-4	i	CC(C)[C@H](NS(=O)(=O)c1cccc(C(F)(F)F)c1)C(=O)OCC(N)=O
0.68	3	2.1	-2.8	-3.3	0	i	Cc1ccc(CNC(=O)CCC(=O)Nc2nnc(C(C)C)s2)cc1

High-throughput results as filed in PubChem.

Not all compounds are listed; the hit share may differ from the screen's.
